T cruzi inh: blocks replication of Trypanosoma cruzi; AID 1885; T. cruzi beta-gal in NIH3T3, luminescence, 90 h; 1.4% of 300,000 active; inhibition, % (concentration not given with the values);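 active means mean inhibition across valid replicates above about 55%, limit read from the data; inconclusive means mean below that limit but half or more replicates reach it; inactive means mean below it, under half of replicates reach it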;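 further: signal also drops with host cell toxicity which is not excluded here; 0% = plate median of DMSO wells and 100% = zero luminescence signal; higher percent means less beta-gal luminescence so fewer parasites; stock transfer was 50 nL into about 50 µL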
RanGTP-Impb inh: inhibitors of RanGTP-importin-beta interaction, primary screen, biochemical, FRET, CFP-Ran, YFP-importin-beta, homogeneous | cell-free CFP-Ran/YFP-importin-beta FRET ratio | AID 2216 | inhibition, % (concentration not given with the values) | 1.1% of 300,000 active;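 active means most replicates above 15%; inconclusive means exactly half above 15%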;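 further: 0% = DMSO wells and 100% = Ran loaded with GDP instead of GTP; wells of about 40 µL received 100 nL stock; the first replicate is given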
LANA-H2A inh: blocks KSHV LANA binding to histone H2A/H2B; cell-free LANA-H2A/H2B peptide, fluorescence polarization; inhibition, % (no concentration beside the values); AID 2629; Q9QR71; 0.6% of 320,000 active; in the data active means inhibition mostly above about 10%, no sharp cut-off; inactive means mostly below about 6.7%;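 further: stock transfer was 7.5 nL into about 10 µL; 0% = median of vehicle wells and 100% = median of positive control wells; one replicate is shown; the record names a cut of 25% in any replicate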
AF4-AF9 inh: inhibitors of human MLL-AF4/AF9 interaction | inhibition, % at 10 µM | AlphaScreen, biotin-AF4 peptide binding to FLAG-AF9 | 0.47% of 350,000 active | P42568;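 active means every replicate reaching a set inhibition limit, whatever the replicate mean, cut at about 25% in these data; inconclusive means mean inhibition reaches that limit but some replicates miss it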;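 further: 0% = plate neutral control median and 100% = total signal loss; the record names both 10 and 1 µM as test concentration; the first replicate is given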
Target sequence (P42568 whole entry, looked up): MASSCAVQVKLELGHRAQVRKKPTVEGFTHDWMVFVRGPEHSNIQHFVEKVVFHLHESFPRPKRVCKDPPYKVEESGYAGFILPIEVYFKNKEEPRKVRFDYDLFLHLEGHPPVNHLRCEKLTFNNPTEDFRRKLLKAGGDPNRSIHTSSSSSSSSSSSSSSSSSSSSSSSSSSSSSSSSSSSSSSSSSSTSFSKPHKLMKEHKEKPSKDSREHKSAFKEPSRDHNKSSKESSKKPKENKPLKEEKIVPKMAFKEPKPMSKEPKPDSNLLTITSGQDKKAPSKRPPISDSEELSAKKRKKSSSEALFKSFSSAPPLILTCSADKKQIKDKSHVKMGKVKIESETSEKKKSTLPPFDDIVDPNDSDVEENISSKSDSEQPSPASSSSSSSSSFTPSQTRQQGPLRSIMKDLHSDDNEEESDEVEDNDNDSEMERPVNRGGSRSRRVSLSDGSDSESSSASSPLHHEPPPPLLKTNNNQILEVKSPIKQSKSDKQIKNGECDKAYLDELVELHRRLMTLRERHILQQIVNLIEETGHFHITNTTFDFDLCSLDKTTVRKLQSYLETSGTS
Vif TR-FRET: HIV-1 Vif–A3G interaction blockers – biochemical, TR-FRET, GST-Vif 1-94, biotin-A3G peptide, dose response retest, primary screen (AID 1117319); TR-FRET GST-Vif / biotin-A3G peptide binding; higher % means a stronger effect; test concentration not given here; strong numbers were not always called active; 0.57% of 260,000 active; one-dose inhibition, %; IC50 in µM for titrated hits;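 active means above the screen mean plus three standard deviations and confirmed in dose response; inconclusive means results disagree or hit not tested in dose response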;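 further: Vif residues 1-94 fused to GST binding biotinylated APOBEC3G peptide 110-148; 0% = full assay without inhibitor and 100% = GST in place of GST-Vif; retest series ran down from 100 µM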
Bfl-1 A1 inh: inhibitors of the anti-apoptotic protein A1, read as caspase activation; MEF A1-2A-BIM cells, Caspase-Glo 3/7 luminescence, 3 h; percent of clofoctol response, vehicle zero; caspase activation, % (no concentration beside the values); 0.066% of 330,000 active; AID 2462;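 active means over half of replicate activation scores above 10%, or exactly half above 10 with the replicate mean above 10; inconclusive means replicate mean below 10 yet half the replicates above 10; inactive means over half of replicates below 10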;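 further: wells of about 30 µL received 50 nL stock; many hits fall short of the cut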
Calb FLC: affects C. albicans growth with fluconazole. C. albicans CaCi-2 (fluconazole-resistant clinical isolate) + fluconazole, Alamar Blue growth, 48 h. growth inhibition, % (concentration not given with the values). 0.57% of 300,000 active. AID 1979;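 active means most replicates above 75%; inconclusive means exactly half above 75%; inactive means most below 75%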;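 further: all wells also contain fluconazole at 8 µg/ml as a sub-toxic cotreatment; 0% = median of DMSO wells and 100% = median of geldanamycin control wells; wells of about 8 µL received 7.5 nL stock; the first replicate is given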
Beta apoptosis: beta cell apoptosis inhibition; INS-1E cytokine-induced death, ATP luminescence, 48 h; percent of positive-control rescue, neutral wells zero; protection from apoptosis, % (concentration not given with the values); 0.8% of 300,000 active; AID 435005;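 active means all replicates at 75% or more, or half of them and the mean; inconclusive means half reach 75% but not the mean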;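 further: 0% = cytokine-treated negative control wells and 100% = positive control rescue; higher means more ATP so stronger rescue from cytokine killing; wells of about 40 µL received 100 nL stock; the first replicate is given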
* hit, by the source's call; ? = inconclusive; . = not tested or not shown; & = joins results of further samples.

SMILES | T cruzi inh | RanGTP-Impb inh | LANA-H2A inh | AF4-AF9 inh | Vif TR-FRET | Bfl-1 A1 inh | Calb FLC | Beta apoptosis
Cc1[nH]nc2c1C(=O)CCC2 | -16 | 7.9 | 1.5 | . | 23% | -0.2 | 5 | 2
CC(=O)c1cccc(NC(=O)COc2ccc3oc(=O)cc(C)c3c2)c1 | -12 | 1.0 | -1.9 | -0.4 | . | 0.0 | 2 | -9
COCCNC(=O)c1cccc(OC2CCN(Cc3cccc(SC)c3)CC2)c1 | 20 | -1.3 | 2.0 | 9.3 | . | 0.5 | -9 | .
C/C(=C\C(=O)C(F)(F)F)Nc1ccc(C)cc1 | 1 | 3.5 | 5.0 | -29 | . | -0.6 | -3 | -8
COC(=O)C1=C(C(=O)OC)C2(OC1c1ccccc1C)C(=O)c1ccccc1C2=O (stereo not drawn) | 8 | 1.1 | -2.7 | . | -8% | -0.2 | 20 | -6
CC(C)CN(C(=O)COC(=O)Cc1ccc(Cl)cc1)c1c(N)n(Cc2ccccc2)c(=O)[nH]c1=O | -10 | 0.5 | 8.9 | -1.3 | 7% | 0.0 | 7 | .
Cc1sc2ncn(CC(=O)NCC(=O)N3CCN(c4ccccc4F)CC3)c(=O)c2c1C | 3 | 0.4 | -0.8 | 0.3 | . | 1.3 | 26 | 3
COCCN(C(=S)Nc1cccc(OC)c1)C1CCN(C(C)=O)CC1 | -6 | -1.3 | -4.9 | . | . | -0.3 | -1 | -1
COc1ccc(C(=O)NCCc2nnc3ccc(SCC(=O)NCc4ccccc4)nn23)cc1 | -11 | 4.0 | -4.3 | 0.2 | . | -0.3 | -1 | -3
Cc1ccc(NC(=S)NN(C)c2cc(C)nc(C)n2)cc1 | -28 | -1.1 | -2.5 | -7.3 | 0% | -0.1 | -2 | -2
COc1ccc(C2C3C(=O)N(N(C)c4ncc(C(F)(F)F)cc4Cl)C(=O)C3ON2C)cc1 (stereo not drawn) | -8 | -1.7 | 2.1 | 1.7 | . | 0.8 | -10 | 4
CCOC(=O)NC(=O)CSc1nnc(C2CC2)n1Cc1ccco1 | -6 | 1.4 | -1.0 | 0.1 | 1% | 0.2 | -6 | 1
N=c1c2c3c(sc2ncn1Nc1ccccc1)CCC3 | -20 | -0.4 | -3.2 | . | -10% | 0.2 | -11 | -7
O=C(CSc1ncccc1-c1nc2ccccc2[nH]1)NC1CC1 | -3 | -1.6 | 1.2 | . | -21% | -0.5 | -4 | -3
Cn1cccc1C(=O)NCC1CCCCC1 | -15 | 4.4 | -3.2 | -3.7 | . | 1.1 | -6 | -5
Cc1ccc(C2=[N+]([O-])C3(CCCCC/C3=N\O)N(O)C2(C)C)o1 (stereo not drawn) | -6 | 0.5 | -1.8 | . | -3% | 0.4 | -11 | 2
CC1CN(C(=S)Nc2ccccc2C(F)(F)F)CC(C)O1 (stereo not drawn) | -14 | -2.0 | 3.4 | 1.2 | . | -1.8 | -7 | 2
CC(=O)Oc1cccc(N2C(=O)c3ccccc3C2=O)c1 | -11 | -2.3 | -5.7 | -3.3 | 0% | -0.3 | ? | 0
Cc1nn(C)c(C)c1NC(=O)COc1ccc(Cl)cc1Br | . | . | 3.5 | -2.3 | . | 0.2 | . | 4
O=C1CC(c2ccccc2Cl)C2=C(COC2=O)N1 (stereo not drawn) | -5 | -0.4 | 1.2 | . | -3% | -0.1 | 11 | 5
COc1cc(C)c(Br)cc1S(=O)(=O)NCCN1CCOCC1 | 3 | 0.3 | -6.2 | -2.4 | 15% | 0.0 | ? | -5
O=C(NC1CCCC1)C1C2C=CC3(CN(Cc4cccs4)C(=O)C13)O2 (stereo not drawn) | -9 | 0.0 | 4.9 | -11 | 6% | 0.6 | 1 | 1
CN(c1nc(-c2ccc(Br)cc2)cs1)C1CCS(=O)(=O)C1 (stereo not drawn) | 6 | 0.0 | 3.7 | -0.2 | 6% | -1.0 | 0 | 8
CC(C(=O)NCc1ccccc1)N1C(=O)CN(C)C(=O)c2ccccc21 (stereo not drawn) | -9 | -3.2 | -5.7 | . | 8% | -1.4 | 8 | -1
COc1cccc(CC2(CO)CCCN(Cc3cn[nH]c3-c3ccccc3)C2)c1 (stereo not drawn) | 11 | -0.6 | 4.9 | -0.3 | -16% | 1.6 | -5 | 4

The results go on.
SMILES | T cruzi inh | RanGTP-Impb inh | LANA-H2A inh | AF4-AF9 inh | Vif TR-FRET | Bfl-1 A1 inh | Calb FLC | Beta apoptosis
COc1ccc(NC(=O)CN(C)C(=O)Cc2c[nH]c3ccccc23)cc1 | . | . | -0.1 | -0.5 | -4% | 0.1 | . | 3
Cn1ccnc1SCC(=O)Nc1cccc2ccccc12 | -16 | -4.3 | -1.7 | . | -1% | 1.0 | -6 | -6
Cn1c(=O)c(-c2ccccc2[N+](=O)[O-])c(Cl)c2ccccc21 | 4 | 3.8 | 6.2 | 10 | 5% | 0.3 | -13 | -9
O=C(C1CCC(=O)N1Cc1ccccc1Cl)N1CCN(c2cccc(Cl)c2)CC1 (stereo not drawn) | -8 | 1.7 | 1.3 | . | 9%&1% | 0.4 | 11 | 0
COc1cccc(NC(=O)COC(=O)CCC2CCCC2)c1 | . | . | -0.9 | 0.8 | 7% | 0.6 | . | 0
Clc1ccc(OCCSc2nnnn2C2CCCCC2)cc1 | 4 | 2.8 | -0.8 | . | 1% | -1.4 | 2 | -3
CC(=O)C1=C(O)C(=O)N(CC#N)C1c1cccs1 (stereo not drawn) | -14 | -1.4 | -6.0 | . | 9% | 0.3 | -10 | -2
Cn1c(SCC(=O)c2ccccc2)nnc1-c1cccnc1 | -4 | -0.6 | 1.1 | . | 6% | -0.6 | 21 | -2
C=CCn1c(SCC(=O)NC2CC2)nnc1-c1ccccn1 | -12 | 1.2 | 9.1 | -0.9 | -8% | 3.1 | -4 | -4
O=c1[nH]c2ccccc2cc1CN(c1ccccc1)S(=O)(=O)c1ccccc1 | -15 | 3.2 | 0.3 | -0.7 | 6% | 0.0 | 1 | -7
Cn1c(=O)c2c(ncn2CC(=O)N2CCCCCC2)n(C)c1=O | -11 | ? | 2.3 | 3.5 | 1% | -0.1 | 12 | 1
CC(=NCc1ccco1)C1=C(O)c2ccccc2C1=O | -2 | 1.3 | -8.8 | . | 12% | -1.2 | -13 | 5
CCCCN(C(=O)c1cccc(S(=O)(=O)N2CCN(C)CC2)c1)c1c(N)n(CCC)c(=O)[nH]c1=O | -4 | -2.4 | 0.9 | 0.7 | -1% | 0.0 | 2 | -2
CCOc1ccc(CNC(=O)CCS(=O)(=O)Cc2ccc(C)cc2)cc1OC | 0 | -4.8 | 3.3 | 1.0 | -11% | 0.5 | -11 | -4
CNc1cccccc1=S | -19 | 0.7 | 6.2 | . | 0.51µM* | -0.1 | -31 | -1
Cc1cc(C)c(C(=O)CSc2nnc(-c3cccnc3)n2C)c(C)c1 | -2 | 2.2 | 6.6 | 5.8 | 10% | 0.0 | -5 | -5
COc1ccc(S(=O)(=O)NCCc2c[nH]c3ccc(C)cc23)cc1 | -5 | -0.7 | -3.2 | -6.9 | . | 0.1 | -2 | .
COc1cccc(/C=C/C(=O)OCC(=O)NCCc2ccccc2)c1 | -15 | 4.2 | -1.0 | -4.2 | 11% | -0.2 | -1 | -5
C/C(=N\NC(=O)Cc1ccc(F)cc1)c1ccc(O)cc1 | -2 | 2.2 | -0.5 | -0.2 | 8% | 2.1 | -3 | 2
CCN(CC)S(=O)(=O)c1cc(NC(=O)COC(=O)CCc2nc3ccccc3s2)ccc1C | -19 | 0.4 | 4.7 | . | 22% | 0.9 | -20 | -3
O=[N+]([O-])c1ccc(OCCCCCN2CCOCC2)cc1 | -20 | 0.7 | -6.2 | 0.8 | . | -1.1 | 2 | -2
O=c1c(Cc2ccccc2)c(O)ccn1Cc1ccco1 | 4 | -1.4 | 0.2 | -0.9 | 1% | -0.6 | 23 | -1
O=C(CCc1nc2ccccc2s1)Nc1cccnc1 | -6 | 4.0 | 0.3 | 1.7 | 6% | -0.6 | -20 | -1
CCN1C(=O)CC(N2CCC(C(=O)OC)CC2)C1=O (stereo not drawn) | -9 | 0.0 | -1.1 | . | -5% | -1.1 | 22 | .
O=C(CN1CCOc2ccccc21)NCc1ccc(Cl)cc1 | -3 | -2.4 | 0.5 | 1.6 | -6% | 1.4 | 16 | -6

The listing continues.
SMILES | T cruzi inh | RanGTP-Impb inh | LANA-H2A inh | AF4-AF9 inh | Vif TR-FRET | Bfl-1 A1 inh | Calb FLC | Beta apoptosis
Cc1cc(C)cc(C(=O)NCC(=O)OCC(=O)N(C)c2ccccc2)c1 | -8 | 2.0 | -1.9 | 1.2 | . | 0.9 | -4 | 1
c1csc(-c2cnc3ccccc3n2)c1 | 11 | 1.5 | 1.6 | . | ? | -4.8 | 15 | -3
Cc1cccc(N2CCN(C(=S)c3ccc([N+](=O)[O-])cc3)CC2)c1 | 15 | 0.3 | -7.1 | 0.3 | -5% | 0.5 | -25 | -6
CNC(=O)CSc1nc2ccccc2c(=O)n1C1CCCCC1 | -10 | 5.3 | 2.9 | 4.2 | . | 0.4 | 8 | 16
Cc1noc(C)c1S(=O)(=O)N(CC(=O)NC1CCCC1)c1ccc(C(C)C)cc1 | 23 | 2.4 | 10 | -0.6 | 0% | 0.1 | 0 | 3
C#CCNC(=O)C1=C[C@@H](c2ccccc2)[C@H](CCCO)[C@@H](OCC)O1 | -5 | -0.8 | 1.6 | 3.5&-5.4 | . | 0.2 | -7 | -3
CC1(C)NC(=O)N(CCOCCOc2cccc(Oc3ccccc3)c2)C1=O | 7 | -0.8 | -5.4 | . | 3% | -1.5 | 3 | -3
COCCNC(=S)NNC(=O)c1cc(C2CC2)nc2ccccc12 | -5 | 2.0 | -6.9 | -3.4 | . | 0.4 | 5 | 12
COc1ccc(/C=N/NC(=O)CSc2nnc(CCCc3ccc(OC)c(C)c3)o2)cc1 | -6 | 4.9 | -1.0 | . | -2% | -0.3 | 12 | 3
O=C(O)c1ccc(-n2nnnc2SCc2cccc(Br)c2)cc1 | -21 | 4.6 | -3.6 | 0.8 | -2% | 0.1 | 0 | -1
COC(=O)CCc1c(C)[nH]c(C(=O)OCc2ccccc2)c1C | 2 | 0.4 | -2.0 | . | -2% | 0.6 | -3 | -6

Of the compounds above, five have fluorine.
SMILES | T cruzi inh | RanGTP-Impb inh | LANA-H2A inh | AF4-AF9 inh | Vif TR-FRET | Bfl-1 A1 inh | Calb FLC | Beta apoptosis
C/C(=C\C(=O)C(F)(F)F)Nc1ccc(C)cc1 | 1 | 3.5 | 5.0 | -29 | . | -0.6 | -3 | -8
Cc1sc2ncn(CC(=O)NCC(=O)N3CCN(c4ccccc4F)CC3)c(=O)c2c1C | 3 | 0.4 | -0.8 | 0.3 | . | 1.3 | 26 | 3
COc1ccc(C2C3C(=O)N(N(C)c4ncc(C(F)(F)F)cc4Cl)C(=O)C3ON2C)cc1 (stereo not drawn) | -8 | -1.7 | 2.1 | 1.7 | . | 0.8 | -10 | 4
CC1CN(C(=S)Nc2ccccc2C(F)(F)F)CC(C)O1 (stereo not drawn) | -14 | -2.0 | 3.4 | 1.2 | . | -1.8 | -7 | 2
C/C(=N\NC(=O)Cc1ccc(F)cc1)c1ccc(O)cc1 | -2 | 2.2 | -0.5 | -0.2 | 8% | 2.1 | -3 | 2

An unsorted share of the library, and some 4.3% of all compounds hit somewhere here.
